# hNpr1 antagonist – blocks ANP-stimulated signaling of human Npr1 receptor. P16066. HEK293 hNpr1 GloSensor cGMP, ANP-stimulated luminescence. Potency, µM (doses to about 46.3 µM), for inactives: top-dose activity change, negative = inhibition, hits mostly inhibitors. hit rate 1.6% among 76,000. AID 1347048; active = well fitted inhibition curve with a large enough effect; inconclusive = small, poorly fitted or top-dose-only effect; inactive = no such curve, though single readings can be large or run the other way;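 further: nearly all actives have a fitted effect of over 60% in size; nearly all hits also lower the signal before the agonist is added; a reference antagonist and vehicle were the controls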
# Target sequence (P16066 whole entry, looked up): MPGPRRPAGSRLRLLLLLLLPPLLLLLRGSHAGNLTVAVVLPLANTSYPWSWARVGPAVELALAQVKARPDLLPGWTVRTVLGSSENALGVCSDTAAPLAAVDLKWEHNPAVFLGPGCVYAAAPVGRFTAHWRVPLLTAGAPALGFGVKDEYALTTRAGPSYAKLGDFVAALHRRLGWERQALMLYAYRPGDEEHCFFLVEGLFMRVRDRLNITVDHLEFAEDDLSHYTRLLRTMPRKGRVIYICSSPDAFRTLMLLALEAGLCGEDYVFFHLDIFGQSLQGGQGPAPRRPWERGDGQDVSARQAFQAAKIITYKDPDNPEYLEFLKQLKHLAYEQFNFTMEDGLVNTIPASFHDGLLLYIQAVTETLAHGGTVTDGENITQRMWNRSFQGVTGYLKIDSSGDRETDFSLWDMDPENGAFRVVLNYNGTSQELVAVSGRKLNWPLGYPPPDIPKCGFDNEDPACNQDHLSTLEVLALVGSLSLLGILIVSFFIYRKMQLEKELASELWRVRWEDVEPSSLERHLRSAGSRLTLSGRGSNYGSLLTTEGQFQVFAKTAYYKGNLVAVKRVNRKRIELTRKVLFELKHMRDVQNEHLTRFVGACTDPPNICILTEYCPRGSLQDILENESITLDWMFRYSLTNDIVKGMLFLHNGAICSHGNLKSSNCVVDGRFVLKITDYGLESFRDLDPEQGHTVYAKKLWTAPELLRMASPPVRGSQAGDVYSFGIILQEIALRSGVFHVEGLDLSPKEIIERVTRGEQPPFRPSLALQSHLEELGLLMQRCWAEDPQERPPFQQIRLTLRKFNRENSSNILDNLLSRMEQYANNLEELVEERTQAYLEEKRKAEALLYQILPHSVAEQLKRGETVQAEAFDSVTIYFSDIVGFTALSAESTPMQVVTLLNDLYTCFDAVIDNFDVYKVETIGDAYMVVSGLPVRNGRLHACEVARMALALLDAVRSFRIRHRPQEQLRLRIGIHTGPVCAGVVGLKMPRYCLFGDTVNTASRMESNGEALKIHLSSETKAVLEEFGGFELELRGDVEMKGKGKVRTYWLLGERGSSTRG
#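 HEK293 cells stably expressing human Npr1 and cGMP GloSensor pGS-40F, loaded 2 h with 2% GloSensor reagent, given compound 30 min at room temperature. Luminescence read before and 20 min after 0.1 nM hNppA.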
# Active calls of the source: *; ? = inconclusive; [ ] = dose if it differs, or a comment. On the % scale 0 is the no-effect control and ±100 the full control effect; potency means the concentration at half of the fitted maximal effect.
SMILES,hNpr1 antagonist
COc1ccc(C2Cn3nnc(-c4noc(CC5CCCCC5)n4)c3CO2)cc1 (stereo unspecified),-11%
COc1ccc(-c2cc(-c3cccc4[nH]ncc34)cn3cncc23)cn1,-30%[70.6 µM]
COCCC1(CO)CCCN(C(=O)c2ccc3c(c2)OCC(=O)N3)C1 (stereo unspecified),0%
CCOc1ccc(CC(=O)NCc2nnc3ccc(-c4ccccc4)nn23)cc1,2%
CCCNC(=O)N1CCn2nc(C(O)c3ccccc3)cc2C1 (stereo unspecified),2%
O=S(=O)(N[C@@H]1CCOC[C@H]1OCc1ccccn1)c1ccc(F)cc1,-7%
O=C1Nc2ccc(-c3ccccc3F)cc2C(=O)N2CCN(C(=O)C3CCNCC3)C[C@H]12,-1%[70.6 µM]
CSc1cccc(-n2ccnc2-c2cc3n(n2)CCCNC3)c1,0%
CCCC(=O)N1C[C@@H]2CCCN3CCC[C@@H]([C@H]23)[C@H]1CCCC(=O)N1CCOCC1,-3%
COc1nccnc1NC1CCN(C(=O)c2ccc3[nH]ccc3c2)CC1,1%
CCn1cc(CN2CCC3(CC2)CN(C)CC3COC)cn1 (stereo unspecified),0%
CC(C)(CC(=O)O)CC(=O)N[C@H]1C[C@H]2C(=O)Nc3ccccc3C(=O)N2C1,-4%[70.6 µM]
O=C(N[C@H]1CO[C@H]2[C@@H]1OC[C@@H]2n1nnnc1Oc1ccccc1)c1ccc(C(F)(F)F)cc1,10µM*
COc1ccc(-c2cc(N3CCCN(C(=O)Cc4c[nH]c5ccccc45)CC3)n[nH]2)cc1,-23%
CC[C@@]1(O)CCN(C(=O)c2ccc(CSc3ccccc3)o2)C[C@H]1O,-1%
COCC1CN(C(=O)c2ccc(C)s2)CC12CCOCC2 (stereo unspecified),7%
CC(=O)Nc1cccc(C(=O)N2CCCN(c3cc(-c4ccc(Br)cc4)[nH]n3)CC2)c1,-7%
COc1nccnc1NC1CCN(C(=O)Cc2cccs2)CC1,0%
CNc1nccc(N2CCC(CC(=O)N(C)Cc3cn(C)nc3C)CC2)n1,-5%
COc1ccc(C(=O)N2CC3CC(C2)[C@H]2CCCC(=O)N2C3)cn1 (stereo partly specified),0%
O=C(NC1CCCC1)c1csc(N2CCN(c3ccccc3F)CC2)n1,?
Cc1nn(C)c(C)c1CCC(=O)N1CCN(C(=O)N2CC3CC(C2)[C@H]2CCCC(=O)N2C3)CC1 (stereo partly specified),1%
COCC(=O)N1CCCN(Cc2cccnc2)c2ccccc21,3%
CC(CCc1ccccc1)NC(=O)CN1C(=O)NC(c2ccccc2Cl)C2=C1COC2=O (stereo unspecified),-3%
CCCN1C(=O)CCc2cc(NC(=O)NCCCOC)ccc21,8%
# Continued.
SMILES,hNpr1 antagonist
CC(C)N(C)Cc1nnnn1CC(=O)NCCn1ncc2ccccc2c1=O,6%
CNC(=O)CN(C)C(=O)[C@H]1CN(Cc2ccccc2)C[C@H]1C(=O)O,6%
c1cncc(O[C@H]2COCCN(C3CCC3)C2)c1,1%[70.6 µM]
CC(C)CCN1CCC(N2CCN(C(=O)CCCc3ccccc3)CC2)C1=O (stereo unspecified),3%
CC(C)CC(=O)N1CCC2(CC1)OCC(C(=O)N1CCOCC1)N2C(=O)c1ccccc1 (stereo unspecified),0%
CNC(=O)c1noc2c1CN(CC1(O)CNCCOC1)CC2 (stereo unspecified),4%
CC(c1ccc(-c2cc(N)ccn2)cc1)N1CCCCC1 (stereo unspecified),-2%
COCCc1noc(C2Cc3ccccc3N2C(=O)NCC(C)C)n1 (stereo unspecified),-2%
COc1cccc(CN2C(=O)OC3(CCN(C(=O)c4cnccn4)CC3)C2(C)c2cccnc2)c1 (stereo unspecified),-3%
CC(=O)Oc1c(-c2ccc(NC(=O)c3cccs3)cc2)c(-c2cccc(F)c2)nn1-c1ccccc1,-1%
Cc1ccc(NC(=O)Cn2c(-c3ccccc3)nc(C)c(CCO)c2=O)c(C)c1,-12%
COc1ccc(-c2nc(N3CCOCC3)cc3c2CN(Cc2cnn(C)c2)C3=O)cn1,3%[70.6 µM]
Cc1noc(C)c1[S+](=O)([O-])N1CCCC2(CC(c3cccc(C(F)(F)F)c3)=NO2)C1 (stereo unspecified),-15%
Cc1ccc(S(=O)(=O)N2CCn3c(n[nH]c3=O)C2)c(C)c1,3%
COC(=O)C1=C(C)N=C2SC=C(CC(=O)NC3CC3)N2C1c1ccc(C)cc1C (stereo unspecified),?
CC1(c2ccccc2)N(Cc2ccccc2F)C(=O)OC12CCN(Cc1ccc(C#N)cc1)CC2 (stereo unspecified),-2%
CCN(Cc1nccn1C)C(=O)c1coc(COc2ccc3c(c2)OCO3)n1,3%
O=C(NC1CCN(c2cc(-c3ccccc3)[nH]n2)C1)c1ccsc1 (stereo unspecified),-7%
O=C(c1ccccn1)N1CCN(c2cc(-c3cccs3)[nH]n2)CC1,1%
COc1cccc(-c2cn3c(n2)N(C(=O)Cn2ccnc2C)CCC3)c1,-1%
CC(C)CN1C(=O)c2cccn2CC1CNC(=O)c1ccc(F)cc1 (stereo unspecified),-15%
CS(=O)(=O)N1C[C@H]2CCN(Cc3ccccc3C(F)(F)F)C[C@H]21,7%
C=CCNC(=O)CCc1c(C)nn(-c2ccc(F)cc2)c1Oc1ccccc1C,?
COc1ccc(OC)c(S(=O)(=O)N2CCCC(CO)CCNC(=O)CC2)c1 (stereo unspecified),3%
COc1ccc(C)cc1NC(=O)Cn1cccc1-c1nc(-c2ccc3c(c2)OCO3)no1,-7%
# Next section:
SMILES,hNpr1 antagonist
CC(NC(=O)Cc1ccc(N(Cc2cccc(F)c2)C(=O)c2ccco2)cc1)c1ccccc1 (stereo unspecified),-13%
Cc1ccccc1NC(=O)N(C)CC1CCOCC1,5%
O=C(Nc1ccc(F)cc1)c1ccc2c(c1)OCCN(CCC(F)(F)F)C2,-18%[70.6 µM]
CCN1Cc2nc(OC)c(CNC(=O)c3cc(C4CC4)[nH]n3)cc2C1=O,0%
CC(C)(C)C(=O)N1CC[C@@H](CC(=O)O)[C@@H](CCN2CCOCC2)C1,3%[70.6 µM]
COc1cccc(CN2C[C@@H](CO)[C@H](c3ccccn3)C2)c1,7%
O=C(c1ccccc1F)N1CCC2(CC1)N(c1ccccc1)C(=O)CS2(=O)=O,7%
CS(=O)(=O)c1ccc(CN2CCOC[C@H]2c2ncc(-c3ccc(F)cc3F)[nH]2)cc1,0%[70.6 µM]
COCCNC(=O)[C@@H](C)C1CC[C@@]2(C)Cc3sc(CSc4ccccc4)nc3[C@@H](C)[C@@H]2[C@H]1O (stereo partly specified),11µM*
COCCN1C(=O)[C@H]2CC[C@@H]1CN(c1ncnc3sc(C)c(C)c13)C2,?
O=C(NCC1CCOCC1)c1cccc(C(F)(F)F)c1,-12%
CCC[C@H]1CN(C(=O)CCc2ccccc2C)C[C@@H]1N,-2%
Fc1ccc(OCc2nc(C3CCNC3)no2)cc1 (stereo unspecified),6%
COc1ccccc1CNC(=O)CC1CCCCN(C)C1=O (stereo unspecified),-5%
Cc1occc1C(=O)N[C@@H]1CN(c2ncccn2)C[C@H]1CO,1%
O=S(=O)(c1ccccc1C(F)(F)F)N1CC(c2nc(Cc3ccccc3)no2)C1,-25%
Cc1cnc(C2CCC2)n1C1CCN(C(=O)C2(c3ccccc3)CC2)CC1,-3%
CS(=O)(=O)N1CCCN(C(=O)CN2CCCCCC2)CCNC(=O)CC1c1ccccc1 (stereo unspecified),0%
CCn1ccc(C(=O)N2CCC(Oc3ccccc3-c3nc(-c4ccccc4)no3)C2)n1 (stereo unspecified),4%
O=S(=O)(c1ccc(F)cc1)N1CCCC(Cc2noc(-c3cnccn3)n2)C1 (stereo unspecified),9%
CNC(=O)C(C)(C)N1CCC[C@H]1C(=O)N(C)Cc1cccnc1,6%[70.6 µM]
COc1ccc(-c2noc(-c3nnn4c3COC(c3ccc(F)cc3)C4)n2)cc1 (stereo unspecified),-3%
CN1C[C@@H](NC(=O)c2ccc3c(c2)OCO3)C[C@H]1c1nc(-c2ccc(Cl)cc2)no1,35µM*
CCCNC(=O)N1CC[C@@H](CC(=O)O)[C@@H](CC2=NCCc3ccc(OC)cc32)C1,2%[70.6 µM]
COc1ccc(-c2nc(-c3ccccc3)nc3c2CN(C(=O)c2ccc(C)cc2)CC3)cc1,0%

# Ordered by length of the SMILES (low to high): some entries from above
SMILES,hNpr1 antagonist
Cc1ccccc1NC(=O)N(C)CC1CCOCC1,5%
CNC(=O)C(C)(C)N1CCC[C@H]1C(=O)N(C)Cc1cccnc1,6%[70.6 µM]
CS(=O)(=O)c1ccc(CN2CCOC[C@H]2c2ncc(-c3ccc(F)cc3F)[nH]2)cc1,0%[70.6 µM]

# New compounds follow:
SMILES,hNpr1 antagonist
Cc1ccsc1CCNc1cc(C2CC(N)C2)ncn1 (stereo unspecified),-26%
O=C(CN1CCCc2nc(C3CC3)ncc2C1=O)NCCCN1CCOCC1,-2%
C=CCNC(=O)C[C@@H]1CCN(C(=O)c2ccccc2)C[C@@H]1CC,0%[70.6 µM]
O=C1NCCCCCCN(C(=O)c2cnccn2)[C@H]2C[C@H](c3nc(-c4cccnc4)no3)C[C@@H]12,4%
Cc1cnn(C2(C(=O)O)CCN(C(=O)c3ncoc3C)CC2)c1,0%
Cc1cn2nc(C(=O)N3CCC(NC(=O)c4ccc(F)cc4)CC3)cc2c(=O)[nH]1,0%
CCn1ncc(N2CCCC(CC(=O)NCCN3CCCC3)C2)cc1=O (stereo unspecified),-11%
O=c1[nH]c(N2CCOCC2)nc2c1CCN(Cc1ccc(Cl)cc1)CC2,3%
CC(C)CNC(=O)c1csc(-c2cccc(OC(C)C)c2)n1,-5%
CN(C)CC1(O)CCC2(CCN(C(=O)Cn3c(=O)oc4ccccc43)CC2)CC1,-1%
CC(C)NC(=O)N1CCCC(c2nc(-c3cccnc3)no2)CCNC(=O)CC1 (stereo unspecified),3%
O=C1CCC2(CCN1Cc1ccccc1)CCN(C(=O)c1ccccc1F)CC2,-5%
O=C(NCCCn1cccn1)C1CN(S(=O)(=O)c2cccnc2)CC12CCCCC2 (stereo unspecified),4%
COc1ccc(OCc2cc(C(=O)N(C)CC(O)CO)n[nH]2)c(Cl)c1 (stereo unspecified),9%
O=C(CCCC1C(=O)Nc2ccccc21)NCCc1noc(-c2ccccc2)n1 (stereo unspecified),-22%
Cc1ccc(O[C@H]2CCOC[C@H]2NC(=O)CCc2ccc(F)cc2)cn1,2%
CC(=O)N1CCN(C(=O)C[C@@H]2CCNC[C@@H]2Cc2cc(CSc3ccccc3)on2)CC1,7%
CCOc1cccc(CNC(=O)c2cc3c(N4CCCC4)nc(C)cn3n2)c1,4%
Cc1ccc(C(=O)N[C@@H](Cc2ccccc2)C(=O)N2CCCOCCNC(=O)CC2)s1,1%
COc1ccc(OC)c(-c2nc(CN3CCCC(C(C)(C)O)C3)c(C)o2)c1 (stereo unspecified),4%
O=C1COCC2(CN(c3ccc(C(F)(F)F)cn3)C2)CN1c1ccc(F)cc1,-3%[70.6 µM]
Cn1cc(-c2cnc(Nc3cccc(C(F)(F)F)c3)c3c2CCO3)cn1,?
O=C(N[C@H]1CCN2C(=O)c3ccccc3NC(=O)[C@H]12)c1cnccn1,7%[70.6 µM]
OC1(CN2CCN(c3nccs3)CC2)CNCCOC1 (stereo unspecified),1%
O[C@@H]1CC(CNCc2ccccn2)(COc2cccnc2)C[C@@H]1O (stereo partly specified),3%

# A second format for part of the listing above:
mol	hNpr1 antagonist
O=C(CCCC1C(=O)Nc2ccccc21)NCCc1noc(-c2ccccc2)n1 (stereo unspecified)	-22%
Cc1ccc(O[C@H]2CCOC[C@H]2NC(=O)CCc2ccc(F)cc2)cn1	2%
CC(=O)N1CCN(C(=O)C[C@@H]2CCNC[C@@H]2Cc2cc(CSc3ccccc3)on2)CC1	7%
CCOc1cccc(CNC(=O)c2cc3c(N4CCCC4)nc(C)cn3n2)c1	4%
Cc1ccc(C(=O)N[C@@H](Cc2ccccc2)C(=O)N2CCCOCCNC(=O)CC2)s1	1%

# The list goes on.
SMILES,hNpr1 antagonist
COc1ccc2c(C)c(C(=O)N3CCC(c4nc(C(C)C)no4)CC3)oc2c1,-5%
Cc1nc(CN2CC3(CCN(C)C3)c3cc(C(=O)NCc4cccs4)ccc32)cs1 (stereo unspecified),-5%[70.6 µM]
CCN(Cc1ccncc1)C(=O)CCC[C@@H]1[C@H]2CCCN3CCC[C@@H](CN1Cc1cccnc1)[C@@H]23,-2%
COc1cccc(NC(=O)Cn2ccn3nc4c(c3c2=O)CCCCC4)c1,16%
Cc1cccc(N(C)c2ccc3nnc(-c4cc(C#N)ccn4)n3n2)c1,?
CC(=O)N1CCC(N2CC[C@H](c3nc4ccc(F)cc4[nH]3)C2)CC1,-3%[70.6 µM]
COC[C@@H]1CN(c2cnccn2)C[C@H]1C(=O)NCCc1ccccn1,-15%
Cc1cnc(CCNC(=O)c2cc(CN3CCOCC3)on2)n1CC1CC1,0%
CCc1ccc(NC(=O)Cn2nc3n(c2=O)CCCCC3)cc1,4%

# hNpr1 antagonist: hit marks shown above
SMILES,hNpr1 antagonist
O=C(N[C@H]1CO[C@H]2[C@@H]1OC[C@@H]2n1nnnc1Oc1ccccc1)c1ccc(C(F)(F)F)cc1,10µM*
COCCNC(=O)[C@@H](C)C1CC[C@@]2(C)Cc3sc(CSc4ccccc4)nc3[C@@H](C)[C@@H]2[C@H]1O (stereo partly specified),11µM*
CN1C[C@@H](NC(=O)c2ccc3c(c2)OCO3)C[C@H]1c1nc(-c2ccc(Cl)cc2)no1,35µM*

# Two records picked at random from the list so far, as already listed:
SMILES,hNpr1 antagonist
CCOc1ccc(CC(=O)NCc2nnc3ccc(-c4ccccc4)nn23)cc1,2%
CN1C[C@@H](NC(=O)c2ccc3c(c2)OCO3)C[C@H]1c1nc(-c2ccc(Cl)cc2)no1,35µM*

# Source: PubChem BioAssay

# A portion of the library; count on the stated rates, not on these rows.
